UCH37 inh: blocks the human deubiquitinase UCH37; 330,000 compounds, 0.33% hits; AID 588478; purified proteasome/UCH37, Ub-AMC cleavage fluorescence; Q9Y5K5; inhibition, % (test concentration not listed);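 active = mean of two replicates above 20%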;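 note: 0% = compound-free wells with enzyme and 100% = wells lacking proteasome; stock transfer was 100 nL into about 20 µL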
Target sequence (Q9Y5K5 whole entry, looked up): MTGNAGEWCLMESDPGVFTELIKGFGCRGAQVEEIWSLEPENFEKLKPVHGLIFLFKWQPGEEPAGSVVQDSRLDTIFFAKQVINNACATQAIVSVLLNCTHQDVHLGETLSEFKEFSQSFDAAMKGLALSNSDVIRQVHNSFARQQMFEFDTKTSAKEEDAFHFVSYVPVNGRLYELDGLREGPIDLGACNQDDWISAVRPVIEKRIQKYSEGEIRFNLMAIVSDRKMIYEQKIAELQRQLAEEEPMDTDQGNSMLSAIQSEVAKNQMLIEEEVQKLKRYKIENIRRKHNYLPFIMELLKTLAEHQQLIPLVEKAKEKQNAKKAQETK
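Material: Human UCH37 enzyme supplied as purified proteasome complex | Schedule: 30 min preincubation with enzyme, 25 min cleavage at room temperature | Detection: AMC fluorescence 355/460 nm | Measure: % inhibition of Ub-AMC cleavage fluorescence | Controls: Wells without proteasome as full block, compound-free enzyme plus substrate as uninhibited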
MLL AF4-AF9 inh: MLL-AF4/AF9 protein interaction inhibition | AlphaScreen, biotin-AF4 peptide binding to FLAG-AF9 | inhibition, % at 10 µM | 350,000 compounds, 0.47% hits | AID 651704;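 active = every replicate reaching a set inhibition limit, whatever the replicate mean, cut at about 25% in these data; inconclusive = mean inhibition reaches that limit but some replicates miss it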;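 note: 0% = plate neutral control median and 100% = total signal loss; the record names both 10 and 1 µM as test concentration; the first replicate is given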
RanGTP-Impb inh: inhibitors of RanGTP-importin-beta interaction, primary screen, biochemical, FRET, CFP-Ran, YFP-importin-beta, homogeneous; inhibition, % (concentration not given with the values); cell-free CFP-Ran/YFP-importin-beta FRET ratio; AID 2216; 300,000 compounds, 1.1% hits;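 active = most replicates above 15%; inconclusive = exactly half above 15%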;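 note: 0% = DMSO wells and 100% = Ran loaded with GDP instead of GTP; wells of about 40 µL received 100 nL stock; the first replicate is given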
FGF22 binding: shifts melting point of recombinant human FGF22; Q9HCT0; recombinant FGF22 thermal shift, SYPRO orange fluorescence; percent of sucrose octasulfate shift, DMSO zero; calls only at 9.99 µM; 340,000 compounds, 1.5% hits; AID 651658;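 active = melting point raised past a set limit in the mean and every replicate; inconclusive = no clear call; three in four hits are not shown here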
Target sequence (Q9HCT0 whole entry, looked up): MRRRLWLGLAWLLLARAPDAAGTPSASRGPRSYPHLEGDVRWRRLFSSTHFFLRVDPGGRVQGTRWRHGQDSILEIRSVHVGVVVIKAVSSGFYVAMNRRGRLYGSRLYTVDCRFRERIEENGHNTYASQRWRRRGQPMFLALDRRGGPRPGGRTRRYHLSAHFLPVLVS
HNF4A DNA FP: change in binding of human HNF4 alpha to DNA. HNF4a-FITC DNA binding, fluorescence polarization, 1 h. 360,000 compounds, 0.3% hits. activity change, % at 10 µM. P41235; in the data active = activity change above about 30%, passing the limit was not always enough;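 note: controls were the assay level and a saturating level of protein; the project sought stronger binding though the title names inhibitors; some compounds called inactive have numbers as strong as hits; positive values seem to mean higher polarization but the record does not say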
Target sequence (P41235 whole entry, looked up): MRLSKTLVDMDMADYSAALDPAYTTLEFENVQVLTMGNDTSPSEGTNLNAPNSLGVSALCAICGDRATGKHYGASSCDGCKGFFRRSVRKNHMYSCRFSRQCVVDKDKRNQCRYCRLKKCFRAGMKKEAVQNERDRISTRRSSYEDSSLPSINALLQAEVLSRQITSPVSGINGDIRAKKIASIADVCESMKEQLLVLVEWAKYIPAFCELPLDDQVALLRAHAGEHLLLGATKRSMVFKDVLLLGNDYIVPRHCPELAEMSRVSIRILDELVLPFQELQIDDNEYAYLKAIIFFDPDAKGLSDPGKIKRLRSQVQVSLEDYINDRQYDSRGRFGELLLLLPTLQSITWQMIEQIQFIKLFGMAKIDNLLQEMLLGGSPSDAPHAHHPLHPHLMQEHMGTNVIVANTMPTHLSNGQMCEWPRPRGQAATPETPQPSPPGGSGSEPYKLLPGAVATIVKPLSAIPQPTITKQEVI
Vif A3G: HIV-1 Vif–A3G interaction blockers – biochemical, TR-FRET, GST-Vif 1-94, biotin-A3G peptide, dose response retest, primary screen (AID 1117319); TR-FRET GST-Vif / biotin-A3G peptide binding; higher % means a stronger effect; test concentration not given here; strong numbers were not always called active; inhibition, %; hits with a dose series show IC50 in µM; 260,000 compounds, 0.57% hits;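 active = above the screen mean plus three standard deviations and confirmed in dose response; inconclusive = results disagree or hit not tested in dose response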;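 note: Vif residues 1-94 fused to GST binding biotinylated APOBEC3G peptide 110-148; 0% = full assay without inhibitor and 100% = GST in place of GST-Vif; retest series ran down from 100 µM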
E coli growth: blocks Escherichia coli growth | 330,000 compounds, 0.21% hits | OD600, 23 h; stronger effect = lower value | OD600 absorbance (concentration not given with the values);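 active = OD600 absorbance below the run mean of sample wells minus 3.6 SD, in any replicate, cut at about 0.56 in these data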;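 note: stock transfer was 300 nL into about 60 µL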
The depositor's hits bear a star; i = inactive; ? = inconclusive; nt = not tested or not shown; & = joins results of further samples. These rows are one share of the data, so the mix of outcomes need not match the whole.

RanGTP-Impb inh	FGF22 binding	SMILES	MLL AF4-AF9 inh	HNF4A DNA FP	UCH37 inh	Vif A3G	E coli growth
-0.8	i	CCOc1ccc(N(CC(=O)N2CCOCC2)S(=O)(=O)c2ccc(Cl)cc2)cc1	0.4	-0.1	7.0	nt	0.67
-0.9	i	COc1ccc(-c2cc(C(=O)Nc3cc(Cl)ccc3OC)no2)cc1	-5.6	2.2	-5.0	-7%	0.68
-1.6	nt	CN1CCN(c2ccc(Cl)cc2NC(=O)c2ccc(S(=O)(=O)N(C)C)cc2)CC1	nt	-1.3	0.3	-26%	0.75
-2.6	nt	CCOc1ccc(S(=O)(=O)N(C)c2ccc(OCC(=O)NCc3ccco3)cc2)cc1	nt	-0.8	5.7	0%	0.69
2.1	i	O=C(CC1CCCCC1)NCc1ccc(F)cc1	-0.7	-2.6	3.7	-4%	0.7
nt	i	Cc1ccc(-c2nn(-c3ccccc3)cc2C=C2SC(=S)N(CCS(=O)(=O)O)C2=O)cc1	0.7	-29	nt	nt	nt
nt	i	CCc1noc(C)c1C(=O)NCCN1C(=O)S/C(=C\c2ccccc2F)C1=O	-0.5	2.8	nt	nt	nt
0.1	i	CC1(C)S[C@@H]2[C@H](NC(=O)COc3ccccc3)C(=O)N2C1C(=O)OCC1CCCCC1 (stereo partly specified)	-4.5	-1.6	-0.5	nt	0.74
-2.2	i	NC(=O)C1=C[C@H](c2ccccc2)C[C@H](OCc2ccc(CO)cc2)O1	-0.9&-1.6	0.6	5.4	5%	nt
?	i	O=[N+]([O-])c1ccc(N2CCN(Cc3cccc([N+](=O)[O-])c3)CC2)cc1	2.7	2.8	3.2	nt	0.65
0.9	i	COc1ccc(C2Nc3ccccc3C(=O)N2Cc2ccccc2)cc1Cn1nnc2ccccc21 (stereo unspecified)	-3.4	-1.9	-83	1%	0.75
4.2	nt	O=C1CSC(c2cccnc2)N1C1CCCCC1 (stereo unspecified)	nt	-1.8	3.8	1%	0.69
nt	i	CCc1nc2ccc(C(=O)N3CCC(O)(Cc4ccccc4)CC3)cn2c1N(C)C(=O)Cc1ccccc1	-35	-0.5	nt	nt	nt
0.5	nt	CCN(CC)S(=O)(=O)c1ccc(N(C)Cc2ccc(C(F)(F)F)cc2)nc1	nt	-0.1	0.1	-4%	0.73
nt	i	Cc1ccc(S(=O)(=O)N2CCN(Cc3ccccc3)CC2)s1	-1.8	-1.8	3.9	6%	0.71
nt	i	COc1cc(/C=C2\SC(=S)N(NC(C)=O)C2=O)ccc1OC(=O)c1ccco1	-1.1	27	nt	1%	nt
7.1	nt	CC1CC(C)CN(CC(=O)N2c3ccccc3CCc3ccccc32)C1 (stereo unspecified)	nt	2.7	-1.5	6%	0.67
2.4	i	COc1cccc(OCc2cc(C(=O)NCc3ccc4c(c3)OCO4)no2)c1	-7.3	-1.7	4.1	nt	0.68
?	i	Cc1ccc(NC(=O)CSc2nnc(-c3ccncc3)s2)cc1	-2.8	-0.5	-2.9	nt	0.68
-1.9	nt	O=C(Nc1nc(-c2ccccc2)cs1)c1ccc(Br)o1	nt	-0.7	0.6	-2%	0.69
1.3	nt	c1ccc2[nH]c(CSc3nccs3)nc2c1	nt	-0.6	-1.1	?	0.65
6.0	i	CC(Sc1nnc(NC2CCCCC2)s1)C(=O)N1CCOCC1 (stereo unspecified)	-2.1	3.1	1.9	5%	0.69
3.4	nt	C=CCN(CC=C)S(=O)(=O)c1ccc(NC(=S)NC(=O)c2ccco2)cc1	nt	-1.7	2.0	9%	0.72
111*	i	CC(=O)N=c1c(C#N)cc2c(=O)n3cccc(C)c3nc2n1CCCOC(C)C	-3.2	-3.7	i	-3%	0.67
nt	i	O=C(NN=Cc1ccc(N2CCOCC2)s1)c1ccc([N+](=O)[O-])cc1	0.7	3.1	9.9	nt	0.67
3.0	nt	O=c1ccc2cc(S(=O)(=O)N3CCN(c4cc(Cl)ccc4Cl)CC3)ccc2o1	nt	-0.3	-0.2	2%	0.76
0.1	nt	O=C(COC(=O)C1(c2ccc(F)cc2)CCCC1)N1CCOCC1	nt	1.4	-5.2	2%	0.77
0.8	i	CCOC(=O)N1CCN(C(=O)CCCCCn2c(=S)[nH]c3cc4c(cc3c2=O)OCO4)CC1	-1.9	4.2	5.4	-14%	0.71
2.9	i	COc1ccc2c(c1)c(=O)oc1cc(O)ccc12	-1.8	-4.2	-17	11%	0.76
0.9	i	CCC(C(=O)NC1CCCC1)N(C(=O)Cn1nnc(-c2ccc(OC)c(OC)c2)n1)c1cccc(O)c1 (stereo unspecified)	-12	-0.1	0.7	nt	0.7

RanGTP-Impb inh, what is marked active above.
RanGTP-Impb inh	FGF22 binding	SMILES	MLL AF4-AF9 inh	HNF4A DNA FP	UCH37 inh	Vif A3G	E coli growth
111*	i	CC(=O)N=c1c(C#N)cc2c(=O)n3cccc(C)c3nc2n1CCCOC(C)C	-3.2	-3.7	i	-3%	0.67

Continued.
RanGTP-Impb inh	FGF22 binding	SMILES	MLL AF4-AF9 inh	HNF4A DNA FP	UCH37 inh	Vif A3G	E coli growth
-0.7	nt	CCOc1ccc(NC(=O)[C@@H](NC(=O)OCc2ccccc2)[C@@H](C)CC)cc1	nt	0.6	-0.7	-4%	0.69
0.9	nt	C=CCn1c(SCC(=O)c2c(N)n(CCC)c(=O)n(C)c2=O)nc2sc(CC)cc2c1=O	nt	3.9	5.8	-8%	0.79
2.3	i	COC(=O)c1cc(S(=O)(=O)NCCCN2CCCC2=O)cn1C	-9.3	0.3	1.8	nt	0.67
8.3	nt	COc1ccc2cc(/C=N/NC(=O)c3ccc(CN(c4ccc(C)c(C)c4)S(C)(=O)=O)cc3)c(Cl)nc2c1	nt	6.1	nt	-14%	nt
nt	i	O=C(COC(=O)c1ccc(OC(F)F)cc1)NCc1cccs1	-2.9	-0.4	0.3	nt	0.7
1.4	nt	Cc1ccc(OCC(=O)N2CCN(c3nnc(-c4ccccc4)c4ccccc34)CC2)cc1	nt	-0.3	2.7	6%	0.69
1.1	i	Cc1ccc(Cn2c(=O)c3ccccc3n3c(CCC(=O)O)nnc23)cc1	-2.1	3.1	4.2	-2%	0.72
6.2	i	O=C(NCCc1ccccn1)c1ccc(OC(F)F)cc1	-0.3	3.1	3.5	-4%	0.65
2.8	nt	O=C1OCCC1Sc1nnc(-c2ccc(F)cc2)n1Cc1ccccc1 (stereo unspecified)	nt	-0.6	1.3	?	0.65
-2.8	nt	Cc1ccc(S(=O)(=O)Oc2ccccc2/C=N/NC(N)=S)cc1	nt	-1.7	nt	5%	nt
-2.9	i	O=C(CSc1nc2ccccc2n1Cc1ccc(Cl)cc1)N/N=C/c1ccc(C(=O)O)cc1	0.4	-1.1	nt	14%	nt
6.7	nt	COCCNC(=O)CN(C(=O)Cn1nnc2ccccc21)c1ccc(F)c(Cl)c1	nt	-0.6	0.4	6%	0.72
1.3	i	CCOC(=O)C1=C(C)N=c2s/c(=C/c3ccc(OCC(=O)O)c(OC)c3)c(=O)n2C1c1ccc(Cl)cc1 (stereo unspecified)	9.6	17	nt	nt	nt
2.3	i	O=C1/C(=C\c2cccs2)N=C(c2cccs2)N1Nc1ccccc1	11	-0.2	7.8	13%	0.72
12	i	CSc1cccc(N2CC(C(=O)N(Cc3nnc(-c4ccccc4Cl)o3)C3CC3)CC2=O)c1 (stereo unspecified)	0.0	7.3	-0.8	nt	0.69
-1.4	nt	Cc1cccc(-n2cc(-c3ccccc3)c3c(=O)[nH]cnc32)c1	nt	2.5	2.5	-1%	0.68
-2.6	nt	O=C(CCC(=O)N1CCN(c2ccccn2)CC1)Nc1nnc(C2CCCCC2)s1	nt	-0.2	1.8	0%	0.72
-1.2	i	Cc1ccccc1-n1c(-c2ccc(Br)o2)n[nH]c1=S	nt	-1.3	3.3	nt	0.65
5.5	i	CCn1cc(C(=O)NCCCN(C)c2ccccc2)c(=O)c2cc(S(=O)(=O)N(C)C)ccc21	8.0	-1.0	3.3	4%&1%	0.75
3.8	nt	Cn1cccc1CNCc1ccccc1Cl	nt	-0.3	0.7	9%	0.7
-0.1	nt	Cc1cccc(N(CC(=O)NC2CCCCC2)C(=O)c2c(C)noc2C)c1	nt	-3.6	-1.9	3%	0.69
2.0	nt	CCC(=O)Nc1ccc(NC(=O)c2cccc(OC)c2)nc1	nt	-1.9	0.3	21%	0.64
6.9	nt	COC(=O)c1ccc(C(=O)OC)c(NC(=O)CN(C)Cc2ccc(Cl)c(Cl)c2)c1	nt	1.4	2.2	nt	0.7
0.7	nt	COc1cc(OC)cc(C(=O)NCCC(=O)NCCc2ccc(OC)c(OC)c2)c1	nt	-2.5	0.7	nt	0.62
1.7	i	COc1c(F)c(F)cc2c(=O)c(C(=O)O)cn(C3CC3)c12	-1.9	1.9	3.1	7%	0.05*
1.3	i	COc1ccccc1Nc1ccc(N)cc1	13	1.4	3.7	-17%	0.72
-5.3	i	C=CCOc1ccc(C2NC(=O)c3ccccc3O2)cc1OCC (stereo unspecified)	-2.0	-4.4	1.0	nt	0.62
nt	i	COc1cccc(C(O)c2nc(/C=C/c3ccccc3)cs2)c1 (stereo unspecified)	0.4	2.0	nt	nt	nt
-3.0	i	Cc1cc(C(=O)N/N=C/c2ccc3c(c2)OCO3)c(C)o1	-0.1	-0.2	nt	1%	nt
0.6	i	COc1ccc(CCN2CC(C(=O)NCCc3cn[nH]c3)CCC2=O)cc1 (stereo unspecified)	-2.7	1.3	-0.2	nt	0.67
nt	nt	COc1ccccc1NC(=O)CN1CCN(CC(=O)Nc2ccc(Cl)c(C(F)(F)F)c2)CC1	nt	-0.2	2.4	-7%	0.7
nt	i	COCOc1cccc(CN2CCC2(C)C(=O)Nc2cc(OC)ccc2OC)c1 (stereo unspecified)	-3.6	-2.9	nt	nt	nt
2.0	i	O=C1NC(Nc2nc3ccccc3s2)(C(F)(F)F)C(=O)N1C1CCCCC1 (stereo unspecified)	2.6	-3.1	-0.9	-2%	0.66
5.2	i	CCCS(=O)(=O)N1CCCC(C(=O)NCC(OC)OC)C1 (stereo unspecified)	-0.9	4.6	3.3	-2%	0.69
?	i	COc1ccc(C(=O)OCC(=O)Nc2ccccc2)cc1[N+](=O)[O-]	-1.0	4.7	1.8	8%	0.69
-3.7	nt	Cc1ccc(CNC(=O)Cn2ccc3ccccc3c2=O)o1	nt	-1.1	1.3	2%	0.71
1.9	i	Cn1c(=O)c2c(ncn2CC(=O)NC2CCCCC2)n(C)c1=O	-1.4	1.3	-0.8	nt	0.66
-2.8	i	CC1=C(C(=O)Nc2ccc(C)cc2)C(c2cccs2)NC(=S)N1 (stereo unspecified)	0.5	0.0	7.8	0%	0.74
-0.3	i	Cc1nc2ccccc2n1CSc1ccccc1	-1.9	4.9	1.9	6%	0.69
?	nt	O=C(O)c1ccc(N/N=C/c2cccc3nccnc23)cc1	-3.3	-1.6	nt	-7%	nt
-3.1	i	CC(C)c1ccc(NC2CCCN(C(=O)C3=NN(C)C(=O)CC3)C2)cc1 (stereo unspecified)	2.8	-0.3	1.6	1%	0.7
nt	i	CCCCN1C(=O)C(CC(=O)NC(c2ccccc2)c2ccccc2)CC(C(=O)N2CCCCCC2)=C1C (stereo unspecified)	-0.9	5.7	nt	nt	nt
-0.6	i	COc1ccc(NC(=S)N2CCN(c3ccc([N+](=O)[O-])cc3)CC2)cc1OC	7.2	-0.7	15	3%	0.72
-19	i	O=C(CCN1C(=O)/C(=C/c2cccs2)SC1=S)NNC(=O)c1cccc(O)c1	-2.6	42*	9.3	-2%	0.71

Assay outcomes: PubChem BioAssay, several laboratories
